Source: PubChem
VACV Venus inh – qHTS for Stage-Specific Inhibitors of Vaccinia Orthopoxvirus: Venus Reporter Primary qHTS; 0.46% of 330,000 active; Potency, µM (titrated, usually from 36.5 µM), for inactives: at the top dose activity change, negative = inhibition, most hits filed as inhibitors; Vaccinia virus Venus reporter expression, fluorescence; AID 720580, 2013; active means well fitted inhibition curve with a large enough effect; inconclusive means small, poorly fitted or top-dose-only effect; inactive means no such curve, though single readings can be large or run the other way; tested in A549 cells; further: nearly all actives have a fitted effect of over 30% in size; inactives centre near -10
Vaccinia mCherry – qHTS for Stage-Specific Inhibitors of Vaccinia Orthopoxvirus: mCherry Reporter Primary qHTS; Vaccinia virus mCherry reporter infection, fluorescence; about a quarter of the inactives have no number; 0.63% of 310,000 active; Potency, µM (top dose mostly 36.5 µM), for the others: top-dose activity change, negative = inhibition, actives largely listed as inhibitors; active = well fitted inhibition curve with a large enough effect; inconclusive = small, poorly fitted or top-dose-only effect; inactive = no such curve, though single readings can be large or run the other way; tested in A549 cells; further: nearly all actives have a fitted effect of over 35% in size; inactives centre near -10
Numbers without * were called inactive; i = inactive; ? = inconclusive; . = not tested or not shown; & = joins results of further samples; [ ] = another dose, or the depositor's remark. On the % scale 0 is the no-effect control and ±100 the full control effect; potency means the concentration at half of the fitted maximal effect.

Preview (two entries):
SMILES	VACV Venus inh	Vaccinia mCherry
Cc1ccc(S(=O)(=O)N2CCN(CCC#N)CC2)cc1	9%	-13%
Cc1ccc(S(=O)(=O)C2(C(=O)Nc3ccc(C)c(Cl)c3)CC2)cc1	-11%	-15%

All compounds of this part, repeating the preview:
SMILES	VACV Venus inh	Vaccinia mCherry
Cc1ccc(S(=O)(=O)N2CCN(CCC#N)CC2)cc1	9%	-13%
Cc1ccc(S(=O)(=O)C2(C(=O)Nc3ccc(C)c(Cl)c3)CC2)cc1	-11%	-15%
COc1cccc(CC2(CO)CCCN(Cc3ccccc3-c3ccco3)C2)c1 (configuration not stated)	-1%	-12%
COc1ccc(OC)c(NC(=O)C(=O)NNC(=O)C23CC4CC(CC(C4)C2)C3)c1	-17%	?
Cc1ccc(C(=O)/C=C/c2ccc3c(c2)OCCO3)c(O)c1	-23%	7%
CCOc1ccc(-n2nnnc2SCC(=O)N2CCOCC2)cc1	-14%	.
CSc1nc2nc3c(cc2c(=O)n1-c1ccccc1)COC(C)(C)C3	0%	0%
COc1cccc(CNC(=O)CCc2c(C)c3cc4c(C)coc4cc3oc2=O)c1	-4%	-9%
Cc1cc(C(=O)O)ccc1-n1c(C)cc(/C=C2\SC(=O)NC2=O)c1C	-9%	i
NC(=O)CC(NC(=O)c1ccccc1)c1ccc(NC2CCC2)c([N+](=O)[O-])c1 (configuration not stated)	-19%	i
Cc1[nH]nc2ncc(C(=O)c3cc(F)ccc3O)cc12	-15%	.
Cc1ccccc1NC(=O)c1cccc(S(=O)(=O)N2CCCCC2)c1	-4%	-1%
CCCN(CCC)C(=O)CC(c1ccccc1)c1ccc(C)cc1O (configuration not stated)	-4%	-11%
Cc1ccc(C(O)Cn2nc(C)cc2C)cc1 (configuration not stated)	-9%	-18%
O=C(CN1CCC(C(=O)O)CC1)Nc1ccccc1Oc1ccccc1	16%	-3%
CCOc1ccccc1OCC(=O)OCC(=O)Nc1ncc(Cl)cc1Cl	-10%	i[1.46 µM]
CCOC(=O)c1ccc(N2C(=O)Cc3ccccc3C2=O)cc1	-4%	-16%
CCOC(=O)c1c(S(=O)(=O)NCC(=O)N(C)Cc2ccccc2)c(C)n(C)c1C	-12%	-2%
COCCCNC(=S)N1CCN(C(=O)c2ccco2)CC1	-11%	-12%
COc1ccc(-n2cnnc2SCC(=O)Nc2cc(C(C)(C)C)nn2-c2ccccc2)cc1	-12%	.
O=C(NCc1ccco1)c1cccc2c1C(=O)c1ccc(/C=C/c3ccccc3)cc1S2(=O)=O	?	-13%
C/C(Cn1cnc([N+](=O)[O-])n1)=N\NC(=O)c1ccccc1	-4%	-5%
O=C(Nc1ccc(Cl)cc1)NN1CC(=O)N(c2cccc(C(F)(F)F)c2)CC1=O	-16%	i
COc1ccc(NC(=O)C2=NN(c3ccccc3)C(=O)CC2)cn1	-8%	-24%
CCc1ccc(S(=O)(=O)Nc2cccc(-c3ccc(N4CCCCC4)nn3)c2)s1	-17%	-10%
SMILES	VACV Venus inh	Vaccinia mCherry
COc1cccc(Cn2c(=O)n(-c3cccc(Cl)c3C)c(=O)c3c4c(sc32)CN(C(C)=O)CC4)c1	-1%	-10%
CCNC(=S)Nc1ccc(C)c(Cl)c1	-18%	-8%
Cc1cccc(C(O)c2ncc(-c3ccc4ccccc4c3)[nH]2)c1C (configuration not stated)	-17%	10%
COCCNC(=O)c1onc(CSc2ccccc2F)c1C(=O)O	-9%	i
O=C(NCCc1ccc(Cl)cc1)c1cccc(NC2=NC3CS(=O)(=O)CC3S2)c1 (configuration not stated)	3%	i
CN(C)CCCn1c(=S)[nH]c2sc3c(c2c1=O)CCCC3	-13%	40%[activator]
CC(/C=C/c1ccccc1)=N\NC(=O)Cn1nc(C)cc1C	-2%	-9%
COc1ccc(CN2C(=O)C(CC(=O)NCCc3ccccn3)CC(C(=O)N(C(C)C)C(C)C)=C2C)cc1 (configuration not stated)	-4%	-10%
FC(F)(F)c1ccccc1NC(=S)Nc1cccc2cnccc12	-9%	-7%
OCC[C@H]1C[C@@H](O)[C@H](O)[C@@]2(CCCc3ccccc3O2)O1	-15%	i
CCc1[nH]nc(C(=O)N2CCCC(N3CCN(c4ccccc4C)CC3)C2)c1C (configuration not stated)	-20%	-15%
CC(C)C(OC(=O)c1nsc(Cl)c1Cl)C(=O)NCc1ccccc1 (configuration not stated)	5%	i
CCCc1ncc(C(O)(c2ccccc2)c2ccccc2)n1C	5%	2%
COc1ccc(-c2nc3c(Cl)cc(C(F)(F)F)cn3c2Cc2ccc(C)cc2)cc1OC	1%	0%
COc1ccc(/C=C2\Sc3ccc(C(=O)NCC4CCCO4)cc3N(C)C2=O)cc1 (configuration not stated)	-20%	-22%
COc1ccc(C2C(C(=O)c3ccco3)=C(O)C(=O)N2c2nnc(C)s2)cc1OC (configuration not stated)	-2%	11%
COc1cc(OC)cc(C(=O)O/N=C(\N)c2ccncc2)c1	-24%	-10%
CCCOC(=O)Nc1cccc(C(C)=O)c1	-3%	-9%
COc1ccc(CC(=O)Nc2cc(C)ccn2)cc1OC	-11%	-1%
CCOc1cc(/C=N/NC(=O)C(=O)N2CCCC2)ccc1O	0%	-4%
COc1ccc2c(c1)c(C(=O)N/N=C/c1ccc(OC)c(OC)c1)c(C)n2C	-18%	-21%
CCOC(=O)C1CCN(C(=O)c2ccc3c(=O)n4nc(Nc5ccccc5OC)sc4nc3c2)CC1	-15%	i
COc1cc(-n2c(=S)[nH]c3ccccc3c2=O)c(Cl)cc1Cl	?	.
Cc1cc(Nc2ccc([N+](=O)[O-])cc2)nc2ccccc12	-9%	-9%
O=C(O)c1ccc(NC(=S)NC(=O)c2ccc(-c3ccc(Br)cc3)o2)cc1	-25%	-2%
SMILES	VACV Venus inh	Vaccinia mCherry
Cc1cccc(-c2nc3scc(CCNS(=O)(=O)c4ccc(F)c(C(F)(F)F)c4)n3n2)c1	-8%[7.34 µM]	-10%[7.34 µM]
CN1CCCC(OC(=O)c2ccc(C(C)(C)C)cc2)C1 (configuration not stated)	-13%	i
CCOC(=O)c1cnn(-c2nc(-c3ccccc3)nc3c2COC(C)(C)C3)c1N	-13%	.
CCOC(=O)N1CCC(NC(=O)c2cc(C(=O)Nc3ccc(OCC)cc3)ccc2CO)CC1	-21%	-25%
CC(=O)OCCN(CCOC(C)=O)c1c(C)[nH]c(=O)[nH]c1=O	-7%	-1%
CCC(C)(C)C1CCC(=NNC(=S)Nc2ccccc2)CC1 (configuration not stated)	-3%	i
O=C(Nc1ccccc1Cl)Nc1ccnn1C1CCN(C(=O)c2cscn2)CC1	-16%	-10%
CN1C[N+]([O-])=C(c2ccccc2)C1(C)C	-22%	i
CCOc1ccc(N2C(=O)CNC2=S)cc1	15%	15%
CC(=O)OC[C@H]1O[C@@H](O[C@H]2C[C@]3(C)C(C[C@@H](O)C4C([C@]5(C)CC[C@@H](C(C)(C)O)O5)CC[C@]43C)[C@@]3(C)CC[C@H](O)C(C)(C)C23)[C@H](O[C@@H]2O[C@@H](C)[C@H](O)[C@@H](O)[C@H]2O)[C@@H](O)[C@@H]1O (some centres not stated)	1%	i
CC(C)(C)c1nnc(NC(=O)C2CC(=O)N(CCc3ccc(F)cc3)C2)s1 (configuration not stated)	-17%	-28%
CS(=O)(=O)N(CC(=O)Nc1ccccc1C(=O)N1CCOCC1)c1cccc([N+](=O)[O-])c1	-6%	i
COc1ccc(Cl)cc1Nc1sc(C(=O)c2ccccc2)c(N)c1C(=O)Nc1ccccc1	-16%	-12%
Cc1ccccc1N(C(=O)Cc1cccs1)C(C(=O)NCC1CCCO1)c1cccnc1 (configuration not stated)	-16%	-22%
Cc1ccc(S(=O)(=O)N2CCCCC2C)cc1[N+](=O)[O-] (configuration not stated)	-13%	-13%
O=C(NCc1ccc2c(c1)OCO2)c1ccc(Cl)s1	-19%	-8%
O=C(Cc1ccc(F)cc1)OCC(=O)N1CCN(S(=O)(=O)c2ccc(Cl)cc2)CC1	-5%	-13%
O=C(Cc1c(F)cccc1Cl)N1CCCC1	-10%	-9%
N=C1/C(=C/c2cccn2Cc2ccc(Cl)cc2)C(=O)N=C2SC=CN12	-13%	i
COc1ccc(S(=O)(=O)Nc2cccc3c2O[C@H](CN(C)Cc2ccncc2)[C@@H](C)CN([C@H](C)CO)C3=O)cc1	-13%	-13%
Cc1ccc(N(C(=O)COc2ccccc2C)S(=O)(=O)c2ccc(Cl)cc2)cc1	-5%	-17%
CCC[N+](C)(C)C(C)C(OC(C)=O)c1ccccc1 (configuration not stated)	-13%	i
C=CCNC(=O)c1ccc(C2SCC(=O)N2Cc2ccccc2)cc1 (configuration not stated)	0%	i
O=C(O)Cn1nc(N2CCN(c3ccc(F)cc3)CC2)ccc1=O	-6%	-8%
O=C(C[C@H]1C[C@H](C(=O)N2CCOCC2)[C@@]2(CCC3CCCC3)c3[nH]c4cc(-c5ccco5)ccc4c3CCN2C1=O)NCCc1ccccn1	10µM*	?

4 entries from above, bar-delimited:
structure | VACV Venus inh | Vaccinia mCherry
CCOC(=O)N1CCC(NC(=O)c2cc(C(=O)Nc3ccc(OCC)cc3)ccc2CO)CC1 | -21% | -25%
CC(=O)OCCN(CCOC(C)=O)c1c(C)[nH]c(=O)[nH]c1=O | -7% | -1%
CCC(C)(C)C1CCC(=NNC(=S)Nc2ccccc2)CC1 (configuration not stated) | -3% | i
O=C(Nc1ccccc1Cl)Nc1ccnn1C1CCN(C(=O)c2cscn2)CC1 | -16% | -10%

Following part
SMILES	VACV Venus inh	Vaccinia mCherry
O=C(N/N=C/c1ccccc1OC(=O)c1ccc2c(c1)OCO2)c1cccc(F)c1	?	?
C[C@H](CO)N1C[C@H](C)[C@@H](CN(C)S(C)(=O)=O)OCc2cnnn2CCCC1=O	-5%	i
CCOc1ccc(C(=O)NC(C(=O)NCc2ccccc2OC)C(C)C)cc1 (configuration not stated)	-9%	-21%
CCOc1ccc(/C=C2\NC(=S)NC2=O)cc1	-13%	-14%
COc1ccc(C(C(=O)NC2CCCCC2)N(Cc2ccco2)C(=O)CNC(=O)c2ccco2)cc1 (configuration not stated)	-7%	-14%
CC1(C)CCC(=O)N2CC[C@H]3C[C@H](OC(=O)Nc4ccccc4)C[C@@H]1[C@H]32	-14%&-15%	-17%
O=C1COc2ccc(C(=O)c3ccccc3C(=O)NCc3ccccc3)cc2N1	-24%	-5%
COC(=O)c1nn(-c2ccccc2)c(Sc2ccc(Br)cc2)c1/C=N/O	-2%	.
O=C(c1ccc(Cl)cc1)C1CCCN(Cc2ccc3c(c2)OCCO3)C1 (configuration not stated)	-18%	-19%
CCc1ccccc1N(C)C(=O)c1cn(CC(C)C)c(=O)c2cc(OC)c(OC)cc12	-9%	-19%
O=C(CCCc1nc(-c2ccccc2)no1)N1CCOCC1	-2%	-11%
O=C(CSc1nc(C(F)(F)F)cc(=O)[nH]1)Nc1nccs1	-10%	i
CCCOc1ccc2c(C)c(CC(=O)OC)c(=O)oc2c1	-5%	.
CN1c2ccccc2C(C)(C)C12CCCC(=O)N2 (configuration not stated)	-13%	.
CCOC(=O)C1(C)CCCCN1C(=O)c1ccc(F)c(C)c1 (configuration not stated)	2%	11%
CC(C)CC(c1nc2ccccc2[nH]1)n1c(-c2ccccc2Br)nc2ccccc21 (configuration not stated)	5%	5%
O=C(Nc1ccc(Cl)cn1)Nc1cccs1	-17%	-12%[1.46 µM]
O=C(CSc1nc(-c2ccc(F)cc2)cc(C(F)(F)F)n1)NCCN1CCOCC1	-11%	-4%[1.46 µM]
COC(=O)C1=C(c2ccc(F)cc2OCc2ccccc2)C[C@@H]2CC[C@H]1N2C(=O)N1CCC(O)CC1	-2%	i
CC[C@@H]1C=C(C(=O)O)[C@H](c2cccc(C)c2)N1S(=O)(=O)c1ccc(C)cc1	-13%	-14%
Cc1ccc(O)c(-c2n[nH]c3c2C(c2ccc(F)cc2)N(Cc2ccco2)C3=O)c1 (configuration not stated)	-14%	-15%
Cc1cccc(Cn2cccc(C(=O)Nc3cc(C)on3)c2=O)c1	-6%	-22%
O=C(c1ccc(=O)[nH]c1)N1CCN(S(=O)(=O)c2ccccc2)CC1	-13%	-14%
C[C@H]1CCC[C@@]2(O[C@H](CCO)C[C@@H](O)[C@@H]2O)O1	2%	-13%
Cc1ccc(NC(=O)Cn2c(=O)n(CCc3ccccc3)c(=O)c3c4c(sc32)CCCC4)cc1C	-8%	-3%

Laid out differently: 5 of the compounds above.
Structure | VACV Venus inh | Vaccinia mCherry
O=C(CSc1nc(C(F)(F)F)cc(=O)[nH]1)Nc1nccs1 | -10% | i
CCCOc1ccc2c(C)c(CC(=O)OC)c(=O)oc2c1 | -5% | .
CN1c2ccccc2C(C)(C)C12CCCC(=O)N2 (configuration not stated) | -13% | .
CCOC(=O)C1(C)CCCCN1C(=O)c1ccc(F)c(C)c1 (configuration not stated) | 2% | 11%
CC(C)CC(c1nc2ccccc2[nH]1)n1c(-c2ccccc2Br)nc2ccccc21 (configuration not stated) | 5% | 5%

(listing goes on)
SMILES	VACV Venus inh	Vaccinia mCherry
CCc1ccccc1NC(=O)CSc1nc(C)c(C(=O)Nc2ccccc2)c(-c2ccc(Cl)cc2)c1C#N	-8%	17%
CCCCOC(=O)Nc1ccc(C(N)=O)cc1	-29%	.
O=C(NN=Cc1ccc([N+](=O)[O-])cc1)c1ccncc1	-9%	-7%
O=C(CSc1nnc(COc2ccc(F)cc2)o1)N1CCCCC1	2%	44%[activator]
COc1ccc(NC(=O)c2ccco2)cc1NC(=O)C(C)(C)Oc1ccc(Cl)cc1	-20%	-21%
Cc1ccc(NC(=O)NCc2c(C)nn(C)c2C)cc1Cl	-8%	-16%
Cc1cccc(NC(=O)C[n+]2ccccc2)c1	-12%	-15%
NNC(=O)c1sc(-c2ccccc2)cc1N	-21%	-27%
